High-throughput results: PubChem, several laboratories
eIF4H inh: inhibitors of RNA binding by human eIF4H | eIF4H fluorescence polarization binding assay | inhibition, % at 35 µM | 290,000 tested, 0.94% active | AID 2012;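 active = 50% or more with normal probe brightness, or confirmed in later tests; inconclusive = above 50% with abnormal brightness, or retests that disagree; inactive = below 50% or failed in later tests; about a fifth of its hits are not listed in these tables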;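 note: calls also rest on retests at 20 µM and on dose response follow-up; 0% = protein and probe with vehicle and 100% = probe without protein; strong numbers were not always called active; many hits fall short of the cut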
MT1-MMP act inh: MT1-MMP (human) activation inhibition. P50281. HT1080 RFP-PRO-GFP cells, GFP/RFP ratio fluorescence, overnight; percent of plate control window, DMSO zero. GFP/RFP ratio change, % at 20 µM. 360,000 tested, 0.061% active. AID 651647;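 active = GFP/RFP ratio change of at least 30% with cell ATP level not reduced by more than half and red fluorescence within 50% of control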; note: strong numbers were not always called active
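Assay system: HT1080 RFP-PRO-GFP cells. Benchmarks: DMSO vehicle wells and RFP-L50D-GFP reporter cell wells. Times: overnight cell settling, then overnight compound exposure, 37 °C, 5% CO2. Compound: 20 µM single dose, 1% DMSO. Read-out basis: GFP/RFP fluorescence ratio.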
HIV Env fusion: HIV envelope-mediated fusion inhibition; inhibition, % at 12.3 µM; AID 651610; HeLa-JRFL Env/CEM21 cell fusion, luciferase; 360,000 tested, 1.1% active;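 active = mean replicate inhibition score of at least 50 and every replicate individually at or above 50; inconclusive = only one of the two criteria met; inactive = mean below 50 and not all replicates reaching 50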;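 note: 0% = plate neutral controls and 100% = maraviroc near 300 nM; one replicate is shown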
Rce1 inhib: yeast Ras-converting enzyme inhibition | Q03530 | yeast membranes, quenched prenylated peptide cleavage fluorescence | calls only | 290,000 tested, 0.27% active;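 active = fall in fluorescence gain of 50% or more versus controls, with final raw signal at or below 3038400; inconclusive = same 50% fall but final raw signal above 3038400; inactive = fall in fluorescence gain under 50%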;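 note: plate controls were neutral control wells for no effect and wells lacking membranes for full effect; tested at 10 µM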
CSC inhib: blocks cancer stem cells. cancer stem cell-like cells viability, luminescence. inhibition, % at 7.5 µM. 300,000 tested, 1.1% active. AID 2717;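 active = mean at 75% or more and at least half the replicates too; inconclusive = mean and replicates disagree; tested in HMLE shEcad cells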;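 note: 0% = median of negative and 100% = median of positive control wells; the first replicate is given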
PABP FP inh: blocks human PABP binding to poly(A) RNA; P11940; fluorescence polarization; inhibition, % at 35 µM; 290,000 tested, 1% active; AID 2014;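 active = 50% or more with normal probe brightness, or confirmed in later tests; inconclusive = above 50% with abnormal brightness, or retests that disagree; inactive = below 50% or failed in later tests; about a fifth of its hits are not listed in these tables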;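 note: calls also rest on retests at 20 µM and on dose response follow-up; controls were probe without protein and protein plus probe with vehicle; some compounds called inactive have numbers as strong as hits; many hits fall short of the cut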
Target sequence (P11940 whole entry, looked up): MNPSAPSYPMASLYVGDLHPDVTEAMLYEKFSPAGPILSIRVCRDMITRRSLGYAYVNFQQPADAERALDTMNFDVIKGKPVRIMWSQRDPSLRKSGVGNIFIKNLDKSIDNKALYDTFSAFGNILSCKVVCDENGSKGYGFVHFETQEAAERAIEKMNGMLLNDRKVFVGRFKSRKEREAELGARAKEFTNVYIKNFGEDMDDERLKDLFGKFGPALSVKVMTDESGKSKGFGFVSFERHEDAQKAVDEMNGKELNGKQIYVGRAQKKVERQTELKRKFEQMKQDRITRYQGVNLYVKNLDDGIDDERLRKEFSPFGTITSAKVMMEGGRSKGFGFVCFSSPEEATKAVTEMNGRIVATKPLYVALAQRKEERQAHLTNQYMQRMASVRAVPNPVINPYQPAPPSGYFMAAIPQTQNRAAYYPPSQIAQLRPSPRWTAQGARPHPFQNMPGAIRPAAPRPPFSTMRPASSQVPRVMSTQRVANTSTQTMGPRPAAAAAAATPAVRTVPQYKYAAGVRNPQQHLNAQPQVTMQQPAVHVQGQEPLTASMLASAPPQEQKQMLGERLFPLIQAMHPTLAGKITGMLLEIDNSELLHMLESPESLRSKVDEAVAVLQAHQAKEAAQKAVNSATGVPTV
Yeast UUG start: modulators of start codon recognition fidelity in yeast; S. cerevisiae UUG-firefly luciferase reporter, luminescence/redox ratio; activity score, % at 18.7 µM; 350,000 tested, 0.13% active;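 active = replicate mean at a twofold rise or more, about +100% in these data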;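 note: firefly luciferase made from a UUG start codon reports start codon fidelity; reporter light over untreated wells divided by growth signal over untreated wells; some hits fall short of that in this replicate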
MT1-MMP act inh RFP: further read-out of MT1-MMP act inh, marked with its call; RFP signal change, %; measured here: RFP expression control read;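 0 = vehicle wells; hits needed this value within 50% of zero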
Starred values were filed as active, the others as inactive; i = inactive; ? = inconclusive; . = not tested or not shown. No enrichment for hits (roughly 3% active in at least one column).

SMILES | eIF4H inh | MT1-MMP act inh | MT1-MMP act inh RFP | HIV Env fusion | Rce1 inhib | CSC inhib | PABP FP inh | Yeast UUG start
CC[C@]12c3[nH]c4cc(CCC(=O)N(C)C)ccc4c3CCN1C(=O)[C@@H](CC(=O)NCCCn1ccnc1)C[C@@H]2C(=O)N1CCN(C(=O)C2CC2)CC1 | . | -1 | 2 | -34 | . | . | . | -1
Cc1ccc(C(=O)NNC(=O)CSc2nc(N)cc(N)n2)cc1 | 5 | 2 | 1 | -3 | i | 1 | -13 | -13
CCN1CCN(C(=O)/C=C/c2ccc3c(c2)OCO3)CC1 | -4 | 4 | 1 | 15 | i | -1 | -2 | 5
O=C(c1[nH]c(C(F)(F)F)nc1-c1ccccc1)N1CCN(c2cccc(C(F)(F)F)n2)CC1 | . | 9 | -6 | -76 | . | . | . | -9
COC(=O)c1c(NC(=O)c2ccccc2)sc(Cc2ccccc2)c1C | -7 | -9 | -12 | -2 | i | 0 | -6 | -24
CC1(OC(=O)c2cccs2)C(=O)C=C2C=C(C3CC3)OC=C2C1=O (centres undefined) | . | -4 | 21 | 17 | i | -11 | . | -17
CCN(CC)S(=O)(=O)c1ccc2c(c1)N(CC(=O)NCCN1CCOCC1)C(=O)CO2 | -2 | -3 | 1 | -16 | i | . | 4 | 1
Cc1c(C(=O)NNC(=O)Nc2ccc([N+](=O)[O-])cc2)oc2ccccc12 | 21 | -1 | 0 | -53 | i | 14 | -8 | -21
COc1ccc(N(CC(=O)Nc2ccc(C)c(C)c2)C2=NC3CS(=O)(=O)CC3S2)cc1 (centres undefined) | -4 | -2 | 3 | . | i | 1 | 2 | -15
O=C(Nc1ccc2c(c1)OCCO2)c1cc(F)c(F)cc1Cl | 5 | 4 | 4 | -224 | i | 6 | -11 | -2
O=C(N/N=C/c1cccc(OCc2ccccc2)c1)c1cccs1 | -11 | 4 | -2 | -2 | i | 30 | -8 | -19
CCOC(=O)Cc1csc(SCC(=O)NC2CCCCC2)n1 | -7 | 5 | -7 | 2 | i | -8 | 10 | 0

Just MT1-MMP act inh RFP and PABP FP inh (3 entries from above):
| SMILES | MT1-MMP act inh RFP | PABP FP inh |
| --- | --- | --- |
| COc1ccc(N(CC(=O)Nc2ccc(C)c(C)c2)C2=NC3CS(=O)(=O)CC3S2)cc1 (centres undefined) | 3 | 2 |
| O=C(Nc1ccc2c(c1)OCCO2)c1cc(F)c(F)cc1Cl | 4 | -11 |
| O=C(N/N=C/c1cccc(OCc2ccccc2)c1)c1cccs1 | -2 | -8 |

More compounds follow.
SMILES | eIF4H inh | MT1-MMP act inh | MT1-MMP act inh RFP | HIV Env fusion | Rce1 inhib | CSC inhib | PABP FP inh | Yeast UUG start
CC1(C)Cc2nc3sc4c(SCC(=O)O)ncnc4c3cc2CO1 | -4 | 6 | 1 | -42 | i | -14 | 8 | .
COc1ccc(C(=O)N2CCN(c3ccccn3)CC2)cc1[N+](=O)[O-] | 6 | 0 | -6 | 9 | i | -1 | -10 | .
COc1ccc(C(=O)NC(=S)Nc2ccc(Cl)c(C(=O)O)c2)cc1 | -7 | 4 | 7 | 8 | i | . | -5 | -19
N#C/C(=C\c1ccccn1)c1ccccn1 | 1 | 0 | -6 | -12 | i | 11 | -8 | -12
CCOc1ccccc1C(=O)NCc1ccco1 | 17 | -1 | 1 | . | i | 3 | 26 | -13
CCOc1cc2[nH]c(=O)n(Cc3ccc(C(=O)NCCCN4CCCC4=O)cc3)c(=O)c2cc1OCC | -13 | 2 | 3 | -3 | i | -1 | -4 | 0
CCOC(=O)c1cn2nc(Oc3ccc(NC(C)=O)cc3)ccc2n1 | -12 | 0 | 1 | -10 | i | -10 | -4 | .
Cc1cc(-c2c(C)[nH]n(-c3ccc(Cl)cc3)c2=O)n(-c2ccc(Cl)cc2)n1 | -4 | -3 | -6 | -56 | i | 26 | 4 | .
Clc1ccccc1Cc1noc(CN2CCN(Cc3ccccn3)CC2)n1 | -2 | -2 | 1 | -19 | i | -14 | 6 | -20
COCCCNc1nnc(Cc2ccccc2)c2ccccc12 | 4 | -5 | -1 | -4 | i | -10 | -3 | 1
O=S(=O)(CCc1nnc(-c2ccc(Br)cc2)o1)c1ccc(Cl)cc1 | 9 | 0 | 0 | . | i | 12 | 6 | -11
Oc1ccc(N2CCN(Cc3nc4ccccc4[nH]3)CC2)cc1 | 4 | -5 | 0 | -2 | . | 22 | -1 | -18
Cc1ccc(NC(=O)COC(=O)/C=C/c2cccc(Cl)c2)cc1S(=O)(=O)N1CCOCC1 | -10 | -2 | 3 | -2 | i | -6 | 0 | .
N#Cc1c(N)nc(N2CCCC2)c(C#N)c1-c1ccc(Cl)cc1 | -11 | 2 | -4 | 0 | i | -3 | 6 | -14
CCCCn1nc(C(=O)N2CCc3ccccc32)c2ccccc2c1=O | -14 | -1 | -4 | 29 | i | 12 | -10 | 32
Oc1ccc(/C=N/NC(=S)NC2CC3CCC2C3)cc1 (centres undefined) | -5 | 0 | -4 | -114 | i | 19 | 2 | -39
Cc1ccc(C(=O)Nc2ccc(N3CCCC3)cc2)c(C)c1 | 3 | 0 | 0 | -12 | i | 9 | 10 | .
O=C(Nc1nnc(C2=COCCO2)o1)c1ccc(S(=O)(=O)N2CCOCC2)cc1 | 2 | 0 | 2 | -5 | i | 14 | 12 | .
O=C(Nc1ccc(F)cc1)C(c1ccccc1)N1CCN(C(=O)c2ccco2)CC1 (centres undefined) | -15 | 0 | 2 | 3 | i | -9 | -2 | -7
O=C(COC(=O)Cc1ccccc1[N+](=O)[O-])Nc1nnc(-c2ccccc2)o1 | . | 1 | 3 | . | i | -4 | . | .
COc1ccc(CNC(=O)CNS(=O)(=O)c2cccs2)cc1 | -11 | 2 | 2 | 10 | i | -6 | -5 | -11
CCOc1ccc(S(=O)(=O)c2c(C(=O)c3ccccc3)cnc3cc4c(cc23)OCCO4)cc1 | -5 | -2 | -14 | 9 | i | 9 | 11 | .
NS(=O)(=O)c1cccc(NC(=O)COc2ccc([N+](=O)[O-])cc2)c1 | 5 | 5 | 5 | 14 | i | 1 | 3 | .
COc1ccccc1CNC(=O)C(=O)NCC1OCCN1S(=O)(=O)c1ccc(Br)cc1 (centres undefined) | -5 | 7 | -6 | 11 | i | 16 | 2 | -14
CCCCc1cc(=O)oc2cc(C)cc(OCC(=O)N3CCC(C(N)=O)CC3)c12 | -10 | 0 | -1 | . | i | 4 | 1 | -8
COC(=O)CC1COc2ccccc2N1S(=O)(=O)c1ccc(Br)cc1 (centres undefined) | 1 | -2 | -9 | 11 | i | 2 | 10 | 0
CC(=O)Nc1ccc(Nc2cc(C)nc(Nc3ccc(NC(C)=O)cc3)n2)cc1 | . | 2 | 3 | -8 | . | . | . | -22
COc1cc(Br)cc(/C=N/N(CCO)C2=NS(=O)(=O)c3ccccc32)c1OC | -8 | 4 | -4 | 0 | i | -12 | 2 | -6
COc1ccccc1-c1nnc(SCC(=O)Nc2ccc(S(N)(=O)=O)cc2)n1N | -2 | 1 | 0 | 3 | i | -7 | 4 | -11
Cc1ccc(NC(=O)CCn2c(=O)oc3ccccc32)c(C)c1 | 6 | 0 | 0 | -16 | i | -3 | 7 | .
CC(C)c1ccc(/C=C(\NC(=O)c2ccccc2)C(=O)NCCCn2ccnc2)cc1 | -4 | -6 | -4 | 8 | i | -12 | 0 | -30
O=C(Nc1cccnc1)c1ccc(S(=O)(=O)N2CCCCCC2)cc1 | -1 | 1 | 3 | . | i | -3 | 5 | .
CCc1nc(Nc2ccccc2)c2nnn(Cc3ccccc3)c2n1 | 0 | 1 | -14 | -9 | i | 16 | 4 | -8
O=C(CSc1c[nH]c2ccccc12)NC1CCCC1 | 5 | -1 | 1 | 15 | i | -9 | -4 | -5
Cc1ccc(S(=O)(=O)N2CCCC2)cc1C(=O)NCC(C)(C)N1CCOCC1 | . | 2 | 6 | . | . | 8 | . | 0
COc1ccc(OC)c(C(=O)CCCCC(=O)c2cc(OC)ccc2OC)c1 | . | 4 | -6 | 11 | . | . | . | -16
COc1ccc(-c2ccc(CN3C(CC(C)C)C(=O)N(Cc4cn(CC5CCCCC5)nn4)CCS3(=O)=O)cc2)cn1 (centres undefined) | . | -3 | -8 | -4 | . | . | . | -3
Clc1ccc(-c2ncc3ccccn23)cc1 | 25 | -7 | 2 | -27 | i | -2 | -3 | .
Cc1ccc(C(=O)NC2CCN(C(=O)NC3CCCCC3)CC2)cc1 | 8 | 8 | 6 | 3 | i | . | 3 | -3
O=C(Cc1ccc([N+](=O)[O-])cc1)N1N=C(C2CC2)CC1(O)C(F)(F)F (centres undefined) | 3 | 4 | 1 | 9 | i | -15 | -9 | .
COC(=O)[C@H]1C[C@H](OC(=O)NCC2CCCCC2)[C@@]2(O)CN(S(=O)(=O)c3ccc(C)cc3)CC2[C@H]1C(=O)OC (some centres undefined) | . | 1 | 0 | -35 | . | . | . | 1
COc1ccc(C2=NN(c3nc4ccccc4s3)C(=O)/C2=C\N(C)C)cc1 | 9 | 0 | 4 | -46 | i | -9 | 0 | -28
NC(=S)N1CCCc2ccccc21 | 2 | -5 | -1 | -9 | . | 0 | 2 | .
COc1ccc(NC(=O)Nc2ccc([N+](=O)[O-])cc2)cn1 | 82* | -12 | -9 | -1 | i | -7 | 51* | -12
CN(/C=C/c1c([N+](=O)[O-])c(=O)n(C)c(=O)n1C)c1ccccc1 | 1 | 1 | 0 | -12 | i | -13 | 0 | -14
COc1ccc(C(=O)NCCCNC(=O)c2cnccn2)cc1 | 2 | 0 | 3 | -2 | i | -10 | 11 | -20
CCN(CC)S(=O)(=O)c1cc(C(=O)OCC(=O)NC(=O)c2cccn2C)ccc1C | 1 | 1 | 3 | 6 | i | -14 | -20 | -15
CCC(=O)Nc1ccc2c(c1)nc1n2CCSC1 | 1 | -5 | -1 | -34 | i | -21 | -7 | -25
CC(=O)C1=C(C)OC2(O)c3ccccc3C(=O)C12O (centres undefined) | -1 | 5 | 8 | -7 | i | -5 | 8 | -22
OCC(O)CN(c1ccccc1)c1ccccc1 (centres undefined) | 14 | 0 | 1 | 3 | i | -16 | 3 | -11
COc1ccccc1NC(=O)CSc1nnc(-c2ccncc2)n1CC1CCCO1 (centres undefined) | 5 | 5 | 4 | -50 | i | -1 | 1 | -9
O=C(/C=C\c1cccs1)N1CCN(Cc2ccc3c(c2)OCO3)CC1 | -4 | -3 | 1 | 5 | i | -8 | 11 | -6
CCCNC(=O)C1CC(c2cccc(F)c2)=NO1 (centres undefined) | -4 | -1 | -1 | -51 | i | . | 3 | -13
COc1ccccc1N1CCN(CC(O)c2ccccc2)CC1 (centres undefined) | -1 | 2 | 3 | 10 | i | -5 | 12 | 3
CCOC(=O)c1ccc(NC(=S)NCc2ccco2)cc1 | 3 | 3 | -1 | -43 | i | 3 | 12 | -15
COc1ccc(C2CC(c3ccccc3)=NN2c2ccc(C(N)=O)cc2)cc1 (centres undefined) | 0 | -6 | -4 | -2 | ? | -11 | 8 | -3
N#CCCn1c(SCC(=O)NCCc2ccc(F)cc2)nc2ccccc21 | -2 | -1 | 1 | . | i | -6 | -8 | -10
COc1cc(OC)c(C(=O)OCC(=O)NCCc2ccccc2)cc1OC | 1 | 0 | 0 | 19 | i | -14 | -1 | -7
CSC1=N/C(=C\c2ccc3c(c2)OCO3)C(=O)S1 | -2 | -3 | 2 | . | i | 11 | -1 | .
